S aureus helic = blocks Staphylococcus aureus DNA helicase. actives 0.05% (n = 120,000). purified S. aureus helicase, fluorescence unwinding assay; about half of the hits fall short of the stated cut. inhibition, %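 (tested at about 80 µM)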. AID 485395;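 active = both duplicates at 50% or more, or one of them with a favoured structure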;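 also: 0% = mean of negative control wells and 100% = mean of positive control wells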
MgrA DNA FP = alters Staphylococcus aureus MgrA binding to DNA; fluorescence polarization; inhibition, %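 (about 10 µg/mL by stock and volumes)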; actives 0.13% (n = 84,000); AID 602314;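 active = above 50% in either of two replicates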;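 also: 0% = protein plus DNA without compound and 100% = DNA alone without protein; higher means less MgrA bound to DNA so lower polarization; one replicate is shown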
* marks the source's active call; other numbers are inactive results; · = not tested or not shown; & = joins results of further samples.

Compound | S aureus helic | MgrA DNA FP
CSc1nc2sc3c(c2c(=O)n1-c1ccccc1)CC(C(C)C)OC3 (configuration not stated) | 0.0 | ·
CC(NC(=O)CCCn1c(=O)[nH]c2ccsc2c1=O)C12CC3CC(CC(C3)C1)C2 (configuration not stated) | 12.0 | 0.7
CCN(CC)C(=O)CSc1nc(N)c2c3c(sc2n1)COC(C)(CC)C3 (configuration not stated) | 5.0 | 3.0
CC(C(=O)Nc1cccc(C#N)c1)N(C)Cc1ccc(Cl)cc1 (configuration not stated) | 9.0 | ·
O=CN1N=C(c2ccccc2)CC1c1ccccc1 (configuration not stated) | · | 1.5
Cc1ccc(C)c(N2CCN(S(=O)(=O)c3ccc4c(c3)CCN4C(=O)CCC(=O)O)CC2)c1 | 7.0 | -2.5
C(=N\N(Cc1ccccc1)Cc1ccccc1)/c1ccco1 | 10.0 | -0.3
COc1ccccc1CNC(=O)N(C)C | 5.0 | 1.4
CCSC1=NCN(Cc2cccs2)CN1 | · | 3.8
CC(C)N1C(=O)CC(Nc2ccc(N3CCOCC3)cc2)C1=O (configuration not stated) | -28.0 | ·
Nc1nnc(CCCCn2c(-c3nonc3N)nc3ccccc32)s1 | 21.0 | 8.6
CC1(C)NNC(=S)N(Cc2cccc3ccccc23)C1=O | -8.0 | ·
CCCC(=O)NCCc1cc2c(OC)ccc(OC)c2[nH]c1=O | -19.0 | ·
Cn1c(-c2ccc(Cl)cc2)[n+](C)c2ccccc21 | -17.0 | -1.7
CS(=O)(=O)c1ccccc1-c1nnc(NC(=O)c2cccc(N3C(=O)CCC3=O)c2)o1 | -8.0 | ·
C=C(C)C1Cc2c(C)nn(S(=O)(=O)c3ccc(C)cc3)c2C1 (configuration not stated) | 6.0 | 0.6
Nc1sc2ccccc2[n+]1CC(=O)c1ccccc1 | 16.0 | -3.0
CCOC(=O)c1c(N)sc(C(O)(C(F)(F)F)C(F)(F)F)c1-c1ccc(Cl)cc1 | 0.0 | ·
N#Cc1ccccc1NC(=O)CN1CCNC(=O)C1 | -9.0 | ·
O=C(O)/C(=C/C(=O)c1ccccc1)Nc1ccc(OC(F)(F)F)cc1 | 8.0 | -5.2
O=C(O)c1ccc(COc2ccccc2)cc1 | -12.0 | ·
CCOC(=O)/C(=N/O)C1=NC2(C)CCCCC2c2ccccc21 (configuration not stated) | 9.0 | -1.3
O=C(CSc1n[nH]c(-c2ccco2)n1)N1c2ccccc2Sc2ccccc21 | 4.0 | 0.9
Cc1ccc2[nH]c(O)c(N=O)c2c1 | -6.0 | ·
O=S(=O)(c1ccc(Cl)cc1)c1ccccn1 | 10.0 | ·
COC(=O)c1ccc(N2C(=O)C3ON(c4ccccc4)C(c4ccc(OC)cc4OC)C3C2=O)cc1 (configuration not stated) | 9.0 | ·
O=S(=O)(c1ccccc1)c1ccc(-c2ccn[nH]2)cc1 | · | -0.3
CC(C)(C)C(=O)NC12CC3CC(CC(C3)C1)C2 | -12.0 | ·
CCc1ccc(-c2nn(-c3ccccc3)cc2/C=N\O)cc1 | -16.0 | -1.8
COc1ccc2c(c1)c(C(=O)ON1C(=O)CCC1=O)c(C)n2C1CC1 | · | -1.2
Cc1cccc(C(O)(CCN2CCCCC2)c2ccccc2)c1 (configuration not stated) | 1.0 | ·
FC(F)(F)c1ccc(Sc2nnc3ccccn23)nc1 | 0.0 | ·
NNC(=O)c1ccc2c(c1)OCO2 | -8.0 | ·
COCCNc1nc(-c2ccc(OC)cc2)nc2ccccc12 | 24.0 | ·
Cc1nc(C(F)(F)F)ccc1-c1nnc(SC(=O)c2ccc(Cl)cc2)o1 | · | 1.5
COc1ccc(CNC(=O)c2cc3c(C)nccc3[nH]c2=O)cc1 | 0.0 | ·
Cn1c(=O)c2c(SCC(=O)NCCc3ccccc3)nc(C3CC3)nc2n(C)c1=O | -12.0 | ·
Cc1sc2c(c1C)c(=O)nc1n2C(c2ccccc2)C=CS1 (configuration not stated) | 1.0 | -2.5
N#CC(Cc1ccccc1OC(F)F)c1nc2ccccc2[nH]1 (configuration not stated) | -15.0 | ·
O=C(CCNS(=O)(=O)c1cccc2nsnc12)NC1CCCC1 | 13.0 | 0.3
O=c1[nH]cc(S(=O)(=O)N2CCCCCC2)c(=O)[nH]1 | 9.0 | ·
CCC(=O)NC(=S)Nc1ccc(NC(=O)c2ccc(Br)o2)cc1 | 21.0 | 2.0
CCOC(=O)c1nc(C)sc1-c1ccnn1S(=O)(=O)c1ccccc1C(F)(F)F | · | -1.2
COc1ccc(C2C(C(=O)N3CCN(c4ccccc4OC)CC3)CCC(=O)N2c2ccc(OC)cc2)cc1 (configuration not stated) | 18.0 | ·
NC(=O)CSc1ccc(-c2ccncc2)nn1 | 0.0 | 0.3
COc1cc(CN2CCCC(C(=O)N3CCCCCC3)C2)ccc1OCc1ccccc1 (configuration not stated) | 5.0 | -2.1
CCCCCCOc1ccc(C(=O)Nc2ccccn2)cc1 | -6.0 | ·
Cc1nc(/N=C(\N)NC(=O)Nc2ccc(Cl)cc2)sc1Br | · | -0.4
Cc1cc(C)n2nc(C(=O)Nc3sc4c(c3C(N)=O)CCC4)nc2n1 | 24.0 | ·
COc1ccc2c(Sc3ccc(C)cc3)c(C(=O)NCCc3ccc(OC)c(OC)c3)[nH]c2c1 | 12.0 | 1.3

Three compounds from above, ordered by the value under S aureus helic, highest first.
Compound | S aureus helic | MgrA DNA FP
COc1ccc(C2C(C(=O)N3CCN(c4ccccc4OC)CC3)CCC(=O)N2c2ccc(OC)cc2)cc1 (configuration not stated) | 18.0 | ·
CC(C)(C)C(=O)NC12CC3CC(CC(C3)C1)C2 | -12.0 | ·
CCc1ccc(-c2nn(-c3ccccc3)cc2/C=N\O)cc1 | -16.0 | -1.8

Carrying on.
Compound | S aureus helic | MgrA DNA FP
COC(=O)Cn1cnc2c1c(=O)[nH]c(=O)n2C | -2.0 | 1.1
Cc1ccc(S(=O)(=O)Nc2cc(C)on2)cc1 | · | 0.9
O=C(N/N=C/c1ccccc1)N/N=C/c1ccccc1 | 4.0 | 0.4
CCOc1ccc(OCCCn2cnc3ccccc3c2=O)cc1 | 2.0 | 6.3
O=C1c2cccnc2C(=O)C1c1ccnc2ccccc12 (configuration not stated) | -2.0 | 4.0
CN(Cc1ccccc1)C(=O)c1ccc(Br)cc1 | · | -0.1
O=C(O)C1(Cc2nc3ccccc3[nH]2)CCCC1 | 2.0 | ·
CC(C)c1nc(-c2ccc(-c3ccon3)s2)no1 | · | -1.5
Cc1cc2c(c(Sc3ccccc3)n1)C(=O)OC2 | 14.0 | -3.4
O=S(=O)(Nc1ccc(-c2cn3ccsc3n2)cc1)c1ccccc1 | -3.0 | ·
CCN(CC)C(=S)SCc1cccs1 | 6.0 | -2.5
CCC(C(=O)Nc1cc(C)ccc1C)n1nc(C)n2c(cc3cc(C)ccc32)c1=O (configuration not stated) | -16.0 | ·
O=C1CCCC2=C1C(c1ccc(-c3ccccc3)cc1)C1=C(CCCC1=O)O2 | · | 1.6
O=C(NCCc1ccccc1)c1cc2ccccc2nc1Cl | 4.0 | 2.0
O=C(CSc1nnc2c(Cl)cc(C(F)(F)F)cn12)NCC(F)(F)F | 11.0 | ·
CN(Cc1ccccc1)C(=O)CNc1ccc(Br)cc1 | -2.0 | 7.0
Cc1cc2nc(NC3=NC(O)C=C(CSc4nc5ccccc5[nH]4)N3)nc(C)c2cc1C (configuration not stated) | 8.0 | -0.2
COC(=O)c1c(C)nc(C)c(C(=O)OC)c1-c1csc(S(=O)(=O)/N=C/N(C)C)c1 | · | 0.0
CCc1ccc(Nc2c3c(nc4ccccc24)CCC3)cc1 | 18.0 | -1.8
O=C1CC2(CCCC2)C(=O)N1c1ccc(S(=O)(=O)NC2CCCCC2)cc1Cl | · | -1.2
COC(=O)COc1ccc(SC(F)(F)F)cc1 | · | -7.0
NS(=O)(=O)c1ccc(N2C(=O)C3CC=CCC3C2=O)cc1 (configuration not stated) | 2.0 | 1.1
O=C(O)CCC(=O)NC(c1ccccc1)c1ccccc1 | -1.0 | -1.8
Cc1cccn2cc(CNS(=O)(=O)c3ccccc3F)nc12 | 6.0 | ·
COc1ccc(C(=O)NC(=O)CSc2nnc(CN3CCCCCC3=O)n2-c2ccccn2)cc1 | -10.0 | ·
CCOc1ccc(NC(=O)C2CCC(N3C(=O)C4CC=CCC4C3=O)CC2)cc1 (configuration not stated) | 2.0 | 0.7
CC(Oc1ccccc1F)C(=O)N(C)Cc1ccccc1 (configuration not stated) | 1.0 | 2.3
O=C(c1cccs1)N(Cc1ccco1)c1ccc(O)cc1 | -16.0 | 1.1
Cc1ccc(/C=N/NC(=O)CCn2nc(C)cc2C)c(C)c1 | 17.0 | ·
S=c1[nH]nc(-c2ccncc2)n1CCc1ccccc1 | 15.0&-4.0 | 2.5
O=C(Nc1ccc2cn[nH]c2c1)c1ccc(C(F)(F)F)cc1 | 26.0 | -1.2
COC(=O)c1sc(=Nc2ccccc2)n(-c2ccccc2)c1C | 18.0 | ·
CO/N=C/c1ccc(OC)c(OC)c1 | 17.0 | 0.5
N#CCc1nn(-c2ccccc2)c(-n2cccc2)c1C#N | · | 3.1
N#C/C(=C\c1ccccc1)C(=O)C1CC1 | -5.0 | ·
COC(=O)c1sc(N)c(C(=O)OC)c1CC#N | 9.0 | ·
COc1ccc(OC)c(-c2ccn[nH]2)c1OCc1ccccc1 | · | -1.0
O=C(O)CNC(=O)COc1cccc(Br)c1 | 11.0 | ·
CC1=C(C(=O)NCCN(C)C)C2(CCN(Cc3ccccc3)CC2)OC1=O | 18.0 | ·
COc1ccc(Br)cc1/C=C/C(=O)O | 10.0 | -0.6
Cn1c(NCCCO)nc2c(c1=O)C1(CCCCC1)Cc1ccccc1-2 | -15.0 | ·
COc1ccccc1NCc1cccn1-c1nnc(N2CCCC2)s1 | 15.0 | ·
CN(C(=O)CSc1ncnc2sccc12)C1CCCCC1 | -8.0 | ·
COc1cc(/C=C2\C(=O)NC(=O)N(c3cc(C)cc(C)c3)C2=O)cc(OC)c1O | · | 14.1
Cc1nc(S(=O)(=O)NC2CCS(=O)(=O)C2)cn1C (configuration not stated) | · | 2.5
COc1cc(/C=N/n2c(C)nnc2C)cc(OC)c1O | -7.0 | ·
O=C(O)c1cc2c3c(c1)C1C=CCC1C(c1ccc(F)cc1)N3CC1CC=CC21 (configuration not stated) | · | 45.5
CC1=NN(C(=O)c2ccccc2)C(O)(C(F)(F)F)C1 (configuration not stated) | 6.0 | 1.7
CCc1ccc(N2C(=O)N(CC(N)=O)C3CS(=O)(=O)CC32)cc1 (configuration not stated) | 5.0 | ·
COc1ccc(Br)cc1/C=C1/C(=O)Nc2ccccc21 | · | 1.2

Other entries.
Compound | S aureus helic | MgrA DNA FP
CCN(CC)c1ncc(C(=S)N=P(N(C)C)(N(C)C)N(C)C)s1 | 4.0 | ·
CCC(C)NC(=O)Cn1c(=O)n(CCc2ccccc2)c(=O)c2c3c(sc21)CCCC3 (configuration not stated) | 5.0 | -2.4
Cn1cc(NC(=O)N(Cc2ccco2)CC2CCCO2)c2ccccc2c1=O (configuration not stated) | 9.0 | 0.9
CCOC(=O)c1c(C)cc(C)n2c1nc1ccccc12 | 0.0 | -0.3
Cc1ccc(C(=O)N2CCCCC2)cc1 | -7.0 | 1.1
Cc1noc(C)c1CSc1ccccc1C(=O)OC(C)C(=O)N1CCOCC1 (configuration not stated) | 8.0 | ·
COC(=O)CSc1nnc(-c2ccc(OC)cc2)o1 | 15.0 | ·
CCOC(=O)c1nc(N2CCC3(CC2)OCCO3)c2ccccc2n1 | -4.0 | ·
COc1cccc(C2NC(=O)NC(C)=C2C(=O)Nc2cccc(Cl)c2)c1OC (configuration not stated) | -4.0 | ·
N#CC1=C(SCc2ccccc2)SC(c2ccc(C(=O)O)cc2)NC1=O (configuration not stated) | 1.0 | 9.3
O=C(NCCC(=O)N1CCN(c2ccccn2)CC1)Nc1ccccc1 | 9.0 | ·
O=C(Cn1ccc2ccccc2c1=O)NCC(=O)N1CCCCC1 | 14.0 | 8.5
CCN(c1ccccc1)S(=O)(=O)c1ccc(N2CCc3ccccc3C2)nc1 | 9.0 | ·
COc1cc(OC)cc(-c2cc3nc(C)c(CCC(=O)NC(C)c4cccs4)c(C)n3n2)c1 (configuration not stated) | 4.0 | ·
COC(=O)c1ccc(C(=O)OC)c(N2C(=O)CSCC2=O)c1 | -9.0 | ·
Cc1oc(-c2cc(Cl)ccc2Cl)cc1C(=O)O | 17.0 | ·
COC(=O)CN1C(=O)COc2cc(S(=O)(=O)N3CCCCC3)ccc21 | -3.0 | 0.6
O=C(NCCc1nc2ccccc2n1Cc1ccccc1)c1ccccc1 | 11.0 | -0.7
Cn1c(CSc2cc(C(F)(F)F)nc3ccccc23)nnc1SCC(=O)c1ccccc1 | · | -1.8
CCOC(=O)c1sc(NC(=O)c2cc3ccccc3oc2=O)c(C(=O)OCC)c1C | · | -1.3
CNc1nc2[nH]c(=O)cc(O)c2s1 | -3.0 | ·
CC(=O)NCc1ccccc1Br | · | -0.2
COc1ccc(NS(=O)(=O)c2ccc3oc(Nc4ccc(C)c(F)c4)nc3c2)cc1 | -15.0 | ·
CCC(=Nc1ccccc1)C1=C(O)CCCC1=O | 23.0 | 1.8
CCCCCC[N+]1(CCO)CCOCC1 | 6.0 | 0.8
O=C(c1cnc2n(c1=O)CCS2)N(C1CCCCC1)C1CCCCC1 | -1.0 | ·
COc1ccc(-c2nc(N)n(C(=O)CCc3ccccc3)n2)cc1 | -6.0 | -2.1

These rows are one share of the data, so the mix of outcomes need not match the whole.
